Sa RN4220 lethal: S. aureus RN4220 growth inhibition | AID 1259311 | 0.33% of 330,000 active | inhibition, % (test concentration not listed) | OD600, 16 h;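 active means z-score of -3 or lower and OD600 up to 0.18 on both plates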;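 further: plate controls were untreated cells for no effect and reference antibiotic for full effect; stock transfer was 100 nL into about 80 µL; one replicate is shown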
Autofluor counter: flagged as autofluorescent in microsphere protease counterscreen. compound autofluorescence counterscreen, microsphere flow cytometry; hits give high values. 3.1% of 360,000 active. AID 624483. fluorescence intensity (no concentration beside the values);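 active means at least 3 SD above the mean of all compounds, about 16000 in these data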;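 further: 100 nL of 1 mM stock went into each well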
BJeLR viability: kills HRASV12-expressing BJeLR cells | BJeLR (HRASV12) viability, CellTiter-Glo ATP luminescence, 48 h; reference of the scale not given here | inhibition, % (test concentration not listed) | 0.17% of 300,000 active | AID 1554;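 active means replicate mean above 50%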;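 further: 50 nL library stock added to about 25 µL; numbers are from one replicate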
ugtP null kill: kills S. aureus RN4220 lacking UgtP. S. aureus RN4220 ugtP deletion, OD600 growth, 16 h; some inactives read as strong as hits. growth inhibition, % (concentration not given with the values). 0.54% of 330,000 active;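 active means z-score under -3 and OD600 up to 0.15 on both plates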;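 further: plate controls were untreated wells for no effect and antibiotic for full effect; wells of about 80 µL received 100 nL stock; the first replicate is given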
Mtb hypoxia rep: Mtb hypoxia fluorescent reporter inhibition. M. tuberculosis hypoxia-regulated fluorescent reporter, fluorescence. fluorescence inhibition, % (no concentration beside the values). 0.1% of 300,000 active. AID 1159583;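 active means 35 to 45% if threefold the growth effect, above 45% if 1.5-fold the growth effect; inactive means the rest, general growth blockers included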;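 further: wells of about 50 µL received 100 nL stock; 0% = vehicle wells and 100% = reference inhibitor wells; whole bacteria with a GFP reporter of the hypoxia response; strong numbers were not always called active; many hits fall short of the cut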
PrP UTR inh: suppresses PrP 5' UTR mRNA reporter expression. cell-based PrP 5' UTR mRNA reporter, plate reader. inhibition, % (test concentration not listed). 0.35% of 340,000 active;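 active means every replicate at 50% or more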;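 further: 0 = median of the neutral control wells; tested in H4 reporter cells; numbers are from one replicate; inactives centre near -14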
Mtb hypoxia rep growth: second read-out of Mtb hypoxia rep, no call of its own (marks repeat the call); growth inhibition, %; measured here: M. tuberculosis growth (absorbance);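 0% = vehicle and 100% = reference antibiotic; read after six days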
* hit, by the source's call; . = not tested or not shown.

SMILES | Sa RN4220 lethal | Autofluor counter | BJeLR viability | ugtP null kill | Mtb hypoxia rep | Mtb hypoxia rep growth | PrP UTR inh
Cc1ccc(NC(=O)CN2C(=O)NC3(CCCc4ccccc43)C2=O)cc1S(=O)(=O)N1CCOCC1 (centres undefined) | 3.0 | 4532 | -3 | -1 | 5 | 3 | -21
CC1CCCC(NC(=O)COC(=O)Cc2ccc(Cl)cc2)C1C (centres undefined) | 1.7 | 3543 | . | -4 | 19 | 8 | -21
CO/N=C/NC(=O)NOCc1ncc(C(F)(F)F)cc1Cl | -6.3 | 3030 | 2 | 5 | 6 | -4 | 5
Clc1ccccc1Cc1noc(CN2CCSCC2)n1 | 3.3 | 2067 | -4 | 16 | 13 | 14 | -11
O=C(/C=C/c1ccc(Cl)cc1)NCCN1CCOCC1 | 1.4 | 4018 | -10 | -1 | -9 | 23 | -7
Clc1ccc(CN(Cc2ccccc2)C(c2cccs2)c2nnnn2C2CCCC2)cc1 (centres undefined) | -5.2 | 2979 | -1 | -7 | . | . | -1
CCN(Cc1ccncc1)Cc1c(O)ccc2ccccc12 | 6.5 | 4014 | . | 5 | 6 | 5 | -22
Cc1c(Cl)cccc1NC(=O)CCN1CCN(CCO)CC1 | 2.3 | 3016 | -1 | 5 | 15 | 3 | -13
COc1cc(-c2noc(C)c2C=Cc2ccc(N)cc2)cc(OC)c1OC | -0.8 | . | . | -1 | -9 | 5 | .
COc1ccc(/C=N/Nc2nc(N)cc(Cl)n2)cc1OC | . | 2785 | 13 | . | . | . | -20
O=C(NC1CC1)C1CCN(C2CCN(C(=O)c3ccc(C(F)(F)F)cc3)CC2)CC1 | 1.3 | 5828 | 1 | 3 | -9 | 4 | 6
N#CCOc1ccccc1/C=N/n1nnnc1N | . | 3873 | 16 | . | . | . | -6

The closing 6 compounds of the section before lead into the next.
SMILES | Sa RN4220 lethal | Autofluor counter | BJeLR viability | ugtP null kill | Mtb hypoxia rep | Mtb hypoxia rep growth | PrP UTR inh
CCN(Cc1ccncc1)Cc1c(O)ccc2ccccc12 | 6.5 | 4014 | . | 5 | 6 | 5 | -22
Cc1c(Cl)cccc1NC(=O)CCN1CCN(CCO)CC1 | 2.3 | 3016 | -1 | 5 | 15 | 3 | -13
COc1cc(-c2noc(C)c2C=Cc2ccc(N)cc2)cc(OC)c1OC | -0.8 | . | . | -1 | -9 | 5 | .
COc1ccc(/C=N/Nc2nc(N)cc(Cl)n2)cc1OC | . | 2785 | 13 | . | . | . | -20
O=C(NC1CC1)C1CCN(C2CCN(C(=O)c3ccc(C(F)(F)F)cc3)CC2)CC1 | 1.3 | 5828 | 1 | 3 | -9 | 4 | 6
N#CCOc1ccccc1/C=N/n1nnnc1N | . | 3873 | 16 | . | . | . | -6
Cc1ccc(S(=O)(=O)N2CCN(c3ncnc4scc(-c5ccc(F)cc5)c34)CC2)cc1 | 98* | . | -4 | 99* | 6 | 7 | -7
CCOc1ccc(N2C(=O)CCC2=O)cc1 | 0.6 | 9791 | 1 | 2 | -4 | 2 | -4
CCC1CCCCN1CCCNC(=O)c1cc2c(Cl)nc3ccccc3c2s1 (centres undefined) | 11 | 3624 | 14 | 30 | 13 | 18 | -14
CCC(C)C(NC(=O)c1ccccc1NC(=O)c1ccccc1)C(=O)N1CCOCC1 (centres undefined) | 4.6 | 9120 | -18 | 0 | 3 | 2 | -23
N#CN=C(N)c1ccccc1 | 3.0 | 7565 | -7 | 0 | 3 | 6 | -18
CC1CCN(C(=O)CSc2nnc(-c3ccco3)o2)CC1 | 5.2 | 4682 | 0 | 18 | . | . | -50
Cc1cc(C)c(C#N)c(SCC(=O)N2CCN(Cc3ccccc3)CC2)n1 | -0.4 | 4740 | -4 | -3 | . | . | -26
CCCn1c(=S)[nH]c2cc(C(=O)N3CCc4ccccc43)ccc2c1=O | -7.4 | 21147* | -3 | -27 | 8 | 9 | -39
Cc1cc(C(=O)N2CCC(CO)(Cc3cccc(C(F)(F)F)c3)CC2)n[nH]1 | 3.4 | 5033 | 1 | 8 | 11 | 14 | -12
Cc1cc(=O)[nH]c(NN=CCCc2ccccc2)n1 | 1.3 | . | . | 3 | -7 | 1 | .
CCCCNC(=S)NNC(=O)c1ccco1 | 0.4 | 16637* | 12 | -5 | 5 | 18 | -12
COc1ccc(N2CCN(CCCNC(=O)CCCn3c(=O)[nH]c4ccsc4c3=O)CC2)cc1 | 2.5 | 2958 | -4 | -2 | 1 | 4 | -14
Cc1cc(C(=O)CN2C(=O)NC(Cc3c[nH]c4ccccc34)C2=O)c(C)n1C (centres undefined) | 5.3 | 23788* | -5 | -9 | 4 | 10 | -18
COc1ccc(NC(=O)CC(C)CC(=O)NCc2ccccc2)c(OC)c1 (centres undefined) | 1.8 | . | 5 | -2 | 19 | 3 | -9
O=C(CN1CCN(Cc2ccccc2F)C1=O)NCCc1ccc(Cl)cc1 | 1.0 | 4243 | 7 | 8 | 5 | 4 | -38
CCCCc1nnc(NC(=O)COC)s1 | 3.1 | 4642 | 9 | 5 | 0 | 2 | -7
O=C(CN1CCCCC1)NN=Cc1ccc(Cl)cc1 | 1.6 | . | . | 4 | 13 | 10 | .
O=C(Cc1cccc2ccccc12)NN=Cc1ccncc1 | 1.0 | . | . | 4 | 8 | 11 | .
CCCn1c(=O)c2sccc2n2c(CCCC(=O)NC3CCN(Cc4ccccc4)CC3)nnc12 | 4.4 | 4350 | 5 | 9 | -3 | -6 | -2
O=C1CCN(CCc2ccccc2)CCN1C(CO)Cc1ccccc1 (centres undefined) | -2.1 | . | . | -1 | 14 | 9 | .
COc1ccc(C(=O)NCc2nnc(SCC(=O)NCCc3ccccc3)o2)cc1 | -0.6 | 5983 | 11 | -6 | 19 | 16 | -8
NC(=O)c1c(NC(=O)c2ccncc2)sc2c1CCCC2 | 4.4 | 3356 | -1 | -6 | 7 | 22 | -34
Cc1ccc2nc(CSc3nnc(-c4ccco4)o3)cc(=O)n2c1 | -1.5 | 5877 | 15 | -3 | -4 | 10 | -10
CNC(=O)[C@@]1(C)C=C[C@@H](Cc2ccccc2)N1C(=O)OC | . | 3724 | -3 | . | . | . | -32
CCOC(=O)c1c(C)[nH]c(C)c1C(=O)COc1ccc(NC(=O)c2ccco2)cc1 | 2.5 | 3781 | -2 | -3 | -11 | 7 | -28
O=C(COC(=O)c1c(F)cccc1Cl)NC1CCCCC1 | 3.5 | 4491 | . | 6 | 4 | 0 | -71
CCSc1nnc(C)c(=O)n1COC(=O)c1ccc(S(=O)(=O)N2CCCC2)cc1 | 2.5 | 2522 | -13 | 3 | 0 | -2 | 6
O=C(Nc1sc2c(c1C(=O)O)CCC2)c1ccc(F)cc1 | 39 | 4847 | 1 | 23 | -1 | 10 | -20
CCOC(=O)c1cc(C(=O)OCC)c(=O)[nH]c1N1CCCC1 | 6.2 | 2119 | 4 | 10 | -7 | 8 | -17
CCOc1ccc(C=NNC(=O)c2ccc(-n3cnnn3)cc2)cc1 | 1.4 | 2968 | . | 2 | 9 | 3 | -16
O=C(O)COc1ccc(/C=N/NC(=O)c2cn(-c3ccccc3)nc2-c2ccccc2)cc1 | . | 3609 | 4 | . | . | . | -25
COc1ccc(C2C3C(=O)N(C(C)(C)C)C(=O)C3[C@]3(CC(C)C)C(=O)N(c4cccc(F)c4)C(=O)N23)cc1 (some centres undefined) | 4.1 | . | . | 3 | 3 | -4 | .
Clc1cccc(CSc2ncn(-c3ccccc3)n2)c1 | 7.8 | 16759* | 7 | -11 | -1 | 0 | -30
O=C(NCC1CC1)Nc1ccccc1F | 1.3 | 3586 | 2 | 4 | -1 | 6 | -32
CN(C)c1ccc(/C=N/N(Cc2ccccc2)c2ccccc2)cc1 | . | 11230 | 5 | . | . | . | -18
COc1ccc(C(=O)N(C)Cc2ccccn2)cc1OC1CCN(C(C)C)CC1 | 1.8 | 5039 | 1 | 5 | -7 | 3 | -27
CCOC(=O)/C(=C\c1ccc([N+](=O)[O-])o1)NC(=O)c1ccccc1 | 12 | 7869 | 6 | 5 | -4 | 5 | -13
Cc1nc(CNC(=O)CC2C(=O)NCCN2Cc2cccc(Oc3ccccc3)c2)cs1 (centres undefined) | 2.3 | 2323 | 0 | 15 | 6 | 5 | -15
CC1(C)CC(=O)C2=C(C1)OC(N)=C(C#N)C2c1cccc(OC(=O)c2ccco2)c1 (centres undefined) | 3.9 | 5915 | 3 | 6 | 6 | 3 | -27
CCCC(=O)OCC(=O)NC1CCCc2ccccc21 (centres undefined) | 3.7 | 4197 | -16 | 10 | 6 | 3 | -21
CCO[C@@H]1OC(C(=O)NC2CC2)=C[C@H](c2c[nH]c3ccccc23)[C@H]1CCCO | . | 3377 | -2 | . | . | . | -12
Nc1ccc(CCNc2ncnc3c2ncn3[C@@H]2O[C@H](CO)[C@@H](O)[C@H]2O)cc1 | . | 6508 | 6 | . | . | . | -8
CCc1ccccc1NC(=S)NCCSc1ccc(Cl)cc1 | -1.9 | 5433 | 6 | -2 | 8 | -4 | -8
O=C(Nc1cccc(F)c1)c1cc(S(=O)(=O)N2CCC3(CC2)OCCO3)ccc1F | 5.9 | . | 1 | -1 | -1 | 1 | .
O=C(/C=C/c1ccc2ccccc2n1)c1cc(Br)ccc1O | 6.3 | 7491 | 2 | 4 | 12 | 1 | -21
CC(C)Cc1nnc(NC(=O)CCC(=O)Nc2ccccc2F)s1 | 2.4 | 4457 | -8 | 5 | -6 | -6 | -92
C=C(C)COc1ccc(-c2[nH]ncc2-c2ccccc2)c(O)c1 | -16 | 2852 | 4 | 84* | 10 | 7 | -19
NC(=O)CC(NC(=O)Cc1cccc2ccccc12)c1ccc(N2CCN(c3ccccc3)CC2)c([N+](=O)[O-])c1 (centres undefined) | -3.3 | 3449 | -10 | 3 | 19 | 8 | -11

Rewritten tab-delimited: part of the list above
compound	Sa RN4220 lethal	Autofluor counter	BJeLR viability	ugtP null kill	Mtb hypoxia rep	Mtb hypoxia rep growth	PrP UTR inh
Nc1ccc(CCNc2ncnc3c2ncn3[C@@H]2O[C@H](CO)[C@@H](O)[C@H]2O)cc1	.	6508	6	.	.	.	-8
CCc1ccccc1NC(=S)NCCSc1ccc(Cl)cc1	-1.9	5433	6	-2	8	-4	-8

The list continues:
SMILES | Sa RN4220 lethal | Autofluor counter | BJeLR viability | ugtP null kill | Mtb hypoxia rep | Mtb hypoxia rep growth | PrP UTR inh
O=C1C2C(C=Cc3ccccc3)N3C(=O)CN(Cc4ccccn4)C(=O)[C@@]3(Cc3ccccc3)C2C(=O)N1c1ccccc1 (some centres undefined) | 4.7 | . | . | -3 | 3 | 0 | .
O=C(c1ccccc1Br)N1CCN(c2ccc([N+](=O)[O-])c(N3CCOCC3)c2)CC1 | 2.5 | 2500 | -10 | -2 | 0 | 0 | -16
CCCOc1ccc(C(O)C(CN2CCOCC2)c2ccccc2)cc1 (centres undefined) | 3.8 | 3126 | -6 | 13 | 8 | 2 | -46
O=C(N/C(=C\c1cccc([N+](=O)[O-])c1)C(=O)N1CCOCC1)c1cccc(Br)c1 | 0.7 | 4916 | -6 | 6 | 11 | 7 | -36
CC(=O)Nc1ccc(NC(=O)CSc2ncnc3c2cnn3Cc2ccccc2)cc1 | 2.8 | 4618 | -11 | 3 | 6 | 1 | .
Cc1ccc(C)c(OCC(=O)Nc2ccc(S(=O)(=O)Nc3ccccn3)cc2)c1C | 8.5 | 1916 | 4 | 4 | 5 | 15 | -20
N#Cc1ccc(NC(=O)CNc2cc(S(=O)(=O)N3CCOCC3)ccc2NCC2CCCO2)cc1 (centres undefined) | -1.9 | 4212 | -5 | 3 | -9 | 15 | -22
O=C(CSc1nnc(CNC(=O)c2ccco2)o1)Nc1cccc(F)c1 | 0.7 | 5392 | 4 | 10 | 4 | 2 | -17
C=CCN1C(=O)C(Cc2ccc(C)cc2)S/C1=N/N=C/c1ccco1 (centres undefined) | . | 8042 | -10 | . | . | . | -9
O=C1OCC(c2ccccc2)=C1c1ccc(S(=O)(=O)N2CCOCC2)s1 | 7.6 | 2791 | -12 | 1 | 4 | -2 | -5
COc1ccc(C(=O)N[C@H]2CCCCNC2=O)cc1OC1CCN(C(C)C)CC1 | 2.0 | 5317 | 5 | 4 | 4 | 5 | -12
NC(=O)c1nsc(C(=O)N(Cc2ccco2)C(C(=O)NCC2CCCO2)c2ccc(O)cc2)c1N (centres undefined) | 0.1 | 3509 | 11 | 5 | 11 | 7 | -8
COc1cc2nc(Cl)nc(N3CCCCC3)c2cc1OC | 0.8 | 3223 | 2 | -1 | 0 | 4 | -4
N#Cc1nc(-c2ccco2)oc1NCCCN1CCOCC1 | 4.6 | 22603* | -2 | 2 | 4 | 4 | -17
Cc1ccccc1OCC(=O)N/N=C1\CC(=O)CC(C)(C)C1 | . | 4614 | 1 | . | . | . | -21

Compounds as they come; about 4% have a hit in one of these screens.
